CapD inh: blocks the Bacillus anthracis CapD enzyme; purified CapD enzyme, fluorescence intensity read-out; stronger effect = lower value; some hits fall short of the stated cut; 140,000 compounds, 0.23% hits; z-score (no concentration beside the values); AID 492967;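 active means z-score under -4 in either of two replicates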;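 further: stock transfer was 100 nL into about 40 µL; score is relative to mean and spread of the plate; one replicate is shown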
AID504770: E. coli YBA685 growth inhibition, screen for V. cholerae RctB inhibitors | E. coli YBA685 rctB-dependent plasmid, OD600 growth, 3 h; stronger effect = lower value | z-score (concentration not given with the values) | 130,000 compounds, 0.27% hits | AID 504770;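 active means z-score under -2 on both plates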;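 further: wells of about 30 µL received 100 nL stock; score is relative to mean and SD of the test wells; the first replicate is given; strong numbers were not always called active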
The depositor's hits bear a star; . = no result given; & = joins results of further samples. This is a random part of the collection; about 0.41% have a hit in one of these screens.

#	structure	AID504770	CapD inh
1	Clc1ccc(C2Nc3ccc4ccccc4c3C3C=CCC32)c(Cl)c1 (stereo not drawn)	.	2
2	Cn1ncc2c(N3CCCC3CO)ncnc21 (stereo not drawn)	-0.9	0.4
3	CN(C)CC#Cc1ccc(C=C(C#N)C#N)cc1	-0.45	1.1
4	CC1=C(C(=O)Nc2ccccn2)C(c2ccccc2)n2nnnc2N1 (stereo not drawn)	.	26
5	COc1ccccc1C(=O)N1N=C2c3ccccc3S(=O)(=O)N2C1N(C)C (stereo not drawn)	.	-0.3
6	CCCCC(C)C(=O)NNC(=O)c1cnn(-c2ccc([N+](=O)[O-])cc2)c1C(F)(F)F (stereo not drawn)	.	-0.67
7	CC(C)(C)C(=O)NCCCc1nc2ccccc2[nH]1	-0.8&0.45	0.32&0.62
8	O=C(c1ccc(O)cc1)c1ccc(O)cc1O	-0.05	-1.9
9	COc1cc(C2C(C#N)=C(N)Oc3c2c(=O)oc2ccccc32)cc(OC)c1OC(=O)c1ccco1 (stereo not drawn)	.	0.54
10	CN(C)C(=O)COC(=O)c1ccccc1Oc1ccccc1	1	.
11	COc1ccc(O)c(-c2cc(C(F)(F)C(F)F)nc(-c3ccccc3)n2)c1	0.35	0.21
12	COC(=O)c1ccsc1N1C(=O)C=CC1=O	-0.05	.
13	O=C(CSc1ncccc1C(=O)O)Nc1cc(Cl)cc(Cl)c1	.	-0.33
14	Cc1ccc(C2=NC(C(F)(F)F)(C(F)(F)F)N=C3SCCN32)cc1	-0.6	-0.66
15	COc1ccc(-c2cc(C(F)(F)F)n3nc(C(=O)Nc4ccc(OC)cc4OC)cc3n2)cc1	.	0.36

A section from the list above, as a working copy:
#	structure	AID504770	CapD inh
1	Clc1ccc(C2Nc3ccc4ccccc4c3C3C=CCC32)c(Cl)c1 (stereo not drawn)	.	2
2	Cn1ncc2c(N3CCCC3CO)ncnc21 (stereo not drawn)	-0.9	0.4

Next structures:
#	structure	AID504770	CapD inh
16	CCN(c1ccc(S(=O)(=O)N(C)C)cc1)c1nc(C)cc(C)n1	.	-0.2
17	CCOC(=O)Cc1ccc([N+](=O)[O-])cc1	.	-0.69
18	COc1cccc(NC(=O)CSC2=C(C#N)C(c3ccccc3F)C3=C(CCCC3=O)N2)c1 (stereo not drawn)	-0.1	1.2
19	COC(=O)c1ccc(CSc2nc3ccccc3c(=O)[nH]2)cc1	0.95	-0.025
20	N#CCC(=O)NCCc1ccccn1	.	15
21	CCN1CCc2c(sc(=NC(=O)c3ccc(F)cc3)n2C(=O)c2ccc(F)cc2)C1	-2.1	.
22	CCOC(=O)C1CCN(C(=O)C2Cc3ccccc3N2C(=O)OCc2ccccc2)CC1 (stereo not drawn)	-0.35	-0.2
23	CCOc1ccc(-c2c(C#N)c(N)nc(SCC(=O)OCc3ccccc3)c2C#N)cc1	.	5.5
24	CCOc1cccc2c1CCNC2=O	-1.5	.
25	CCOC(=O)C(C(O)c1ccccc1)N1CCN(S(=O)(=O)c2ccc(C)cc2)CC1 (stereo not drawn)	-0.15	.
26	Cn1c(=O)[nH]c(=O)c2c1ncn2Cc1ccc(F)cc1	0.35	-0.075
27	CC(NC(=O)c1ccc(C#N)cc1)C1CC2CCC1C2 (stereo not drawn)	0.05	.
28	CCC(CO)N=Cc1c(O)n(-c2ccccc2F)c(=O)c2ccccc12 (stereo not drawn)	0.45	-0.075
29	CCCCN(CC)C(=O)Cn1nc(CC)n2c(cc3sccc32)c1=O	0.3	-0.24
30	O=C(O)c1ccc(NC(=O)C2CC(=O)N(Cc3ccc4c(c3)OCO4)C(=Nc3ccc(Cl)cc3)S2)cc1 (stereo not drawn)	.	-0.34
31	CCN1C(=O)/C(=c2\sc3n(c2=O)C(c2cccs2)C(C(=O)OC)=C(C)N=3)c2ccccc21 (stereo not drawn)	.	-0.26
32	COc1ccc(/C=C2\Sc3ccc(C(=O)N4CCOCC4)cc3N(C)C2=O)cc1	-0.05	-1.4
33	CN(C)C(=O)CSc1ccccc1C(=O)O	0.8	.
34	O=C(NCc1ccc2c(c1)OCO2)c1c[nH]c2ccc(S(=O)(=O)N3CCOCC3)cc2c1=O	0.05	8
35	O=S(=O)(NC1c2cccc3cccc(c23)C1N1CCOCC1)c1ccc(Cl)cc1 (stereo not drawn)	.	-0.59
36	O=C(Nc1ccccc1)c1nnsc1S(=O)(=O)c1ccc(Cl)cc1	.	-0.26
37	CC1=C/C(=N\Nc2ccc(C(=O)O)cc2)CC1	-1	.
38	COc1ccc2c(c1)/C(=C/c1c(O)n(C)c(=O)c3ccccc13)C=N2	-0.45	0.57
39	CCNC(=O)N1CCC(c2nc(-c3ccncc3)no2)CC1	.	-0.51
40	O=C(CCC1CC(=O)Nc2ccccc21)NCc1ccccc1 (stereo not drawn)	1.8	-2.9
41	COc1ccc(/C(C)=N/N=C(\C)c2ccc(OC)cc2)cc1	.	-0.38
42	CCSc1ccc(-c2noc(C(C)(C)C)n2)cn1	0.7	-0.03
43	CC(C)CSc1nnc2c3ccccc3n(C)c2n1	0	.
44	OC(CNCCNc1nccc(C(F)(F)F)n1)Cn1ccc2ccccc21 (stereo not drawn)	.	0.11
45	CC1CCCCN1C(=O)CSc1nc(C2CC2)nc2ccccc12 (stereo not drawn)	-0.05	.

Individual results from above:
#37 @ AID504770: -1
#33 @ AID504770: 0.8
#36 @ CapD inh: -0.26

Later entries.
#	structure	AID504770	CapD inh
46	CCN(CC)c1ccc(NC(=O)CSC(=O)c2ccccc2)cc1	-3	-0.47
47	Cc1ccc2c(c1)CCCN2C(=O)c1scc(S(=O)(=O)c2ccc(Cl)cc2)c1C	1.6	-0.61
48	CC1Oc2ccccc2OC1C(=O)NCc1ccccc1 (stereo not drawn)	.	-0.47
49	CCc1ccc(OCCCC(=O)Nc2ccc(S(=O)(=O)Nc3nc(C)cc(C)n3)cc2)cc1	.	0.14
50	COc1ccccc1Nc1cccc2nonc12	-0.45	.
51	O=C(O)c1cccc(-n2cnc3ccccc3c2=O)c1	1.2	.
52	N#C/C(=C\c1ccccc1)C(=O)Nc1cccc2c1C(=O)NC2=O	0.7	.
53	CCCC(=O)NCCc1cc2cc(C)c(C)cc2[nH]c1=O	-0.3	4.4
54	CCCCC(=O)N1C2=C(C(=O)c3ccccc32)C(c2cccc([N+](=O)[O-])c2)c2c1n(C)c(=O)n(C)c2=O (stereo not drawn)	.	-0.14
55	Cc1nc2ccc(Br)cc2c(=O)n1-c1ccccc1N1CCCCC1	.	-0.45
56	N#Cc1ccc(C(=O)OCC(=O)Nc2ccccc2C#N)cc1	0.05	.
57	O=C(CCOc1ccccc1)Nc1ccccc1N1CCOCC1	-1.2	.
58	Cc1c(C#N)c2ccccc2n1CC(=O)N1CCCCC1C (stereo not drawn)	-0.75	-0.22
59	O=c1oc(-c2ccco2)cc(-c2ccccc2)c1-c1ccccc1	0.65	0.23
60	COCCOC(=O)C1=C(C)NC2=C(C(=O)CC(c3ccc(OC)cc3)C2)C1c1ccc2c(c1)OCO2 (stereo not drawn)	.	9.9
61	C=CCn1c(=NC(=O)/C=C/c2ccccc2)sc2cc(S(N)(=O)=O)ccc21	1.8	1.2
62	Cc1cc2c(n1-c1ccc(C(=O)NC(C)C)cc1)CCCC2	0.6	0.75
63	N#Cc1sc2nc(-c3ccccc3)ccc2c1N	1.5	2.1
64	CCOC(=O)NC1CCN(CC)CC1	-0.4	-0.14
65	CCc1nc2cc(C)c(C)cc2nc1CC	-0.45	0.88
66	O=C(CC1CCC1)Nc1ccc(Oc2ccccc2)cc1	1.1	0.28
67	CCCN1CCC(N(C(=O)c2ccccc2)C2CC2)CC1	.	-0.57
68	Cn1c(=O)c(N2CCCCC2)c2c3c(cccc31)C(=O)c1ccccc1-2	.	0.25
69	O=C1OC2(c3ccccc3)C3CCCC2C13	1.8	.
70	O=[N+]([O-])c1cc(C(F)(F)F)ccc1Sc1ccc(Cl)cc1	.	-0.34
71	CC1CCCCN1S(=O)(=O)c1ccc(Cl)cc1 (stereo not drawn)	0.35	0.17
72	Cc1[nH]nc(N)c1-c1ccccc1	-0.3	0.035
73	O=S1(=O)CCC(NCc2ccccc2)C1 (stereo not drawn)	-0.7	.
74	Cc1ccc(C2Oc3ccccc3C3=C2C(c2cccs2)n2ncnc2N3)cc1 (stereo not drawn)	.	-0.34
75	COc1cc(C2NC(=O)NC(C)=C2C(=O)OCCOC(C)C)ccc1OCc1ccccc1 (stereo not drawn)	.	-0.69
76	O=C(NCc1ccccn1)c1ccc([N+](=O)[O-])cc1	.	0.005
77	Clc1ccc(CSc2snnc2-c2ccc(Cl)cc2Cl)cc1	.	-0.23
78	Fc1cc2c(c(Cn3c4ccccc4c4nc5ccccc5nc43)c1)OCOC2	.	-0.045
79	COc1ccc(NC(=O)c2sc3nc(C)nc(N4CCCCC4)c3c2C)cc1OC	.	-0.59
80	CCn1c2ccccc2c2cc(C=Nc3cccc(C#N)c3)ccc21	1.9	35
81	N#Cc1cc(C#N)c(SCC(=O)N(c2ccccc2)C2CCCCC2)nc1N	0.2	.
82	O=[N+]([O-])c1ccc(N2N=C(c3ccccc3)CC2c2ccccc2O)cc1 (stereo not drawn)	.	-0.98
83	COc1ccc(-n2cc(C(=O)NC(C)CCc3ccco3)c3ccccc3c2=O)cc1 (stereo not drawn)	1.6	3.1
84	CC1(C)CC(=O)C(CC2=C(O)CC(C)(C)CC2=O)=C(O)C1	-0.65	0.17
85	COc1ccc(Br)cc1CN(C)Cn1c(NCCO)nc2ccccc21	0.5	.
86	CC(=O)Nc1nc(COC(=O)c2cc(=O)[nH]c3ccccc23)cs1	-0.05	.
87	CCc1ccc(C(=O)Nc2nnn(CC)n2)cc1	-1.1	-0.15
88	CCN(CC)C(=O)CCN1C(=O)c2cc(Cl)c(Cl)cc2C1=O	-0.8	-0.11
89	CN(C(=O)CN1C(=O)c2ccccc2C1=O)c1ccccc1	0.45	.
90	O=C(CSc1nc2cc(Cl)ccc2s1)Nc1ccnn1C1CCCC1	-0.2	.
91	Cc1nc(Sc2ccccc2)c2oc3ccccc3c2n1	-0.95	0.46
92	COc1ccc(-c2cc(-c3ccccc3)nc(N3CCCCC3)n2)cc1OC	-0.6	18
93	COCCN(CCOC)c1nc(-c2ccc(Cl)cc2)nc2ccccc12	.	0.45
94	N#Cc1c(SCC(=O)NCC2CCCO2)nc2c(c1-c1ccco1)CCCC2 (stereo not drawn)	-0.25	.
95	COC(=O)C(CO)Nc1ncnc2onc(-c3ccc(F)cc3)c12 (stereo not drawn)	-0.3	0.23
96	CCOC(=O)N1CCC(NC(=O)C(C)n2c3ccccc3c3cnn(C)c(=O)c32)CC1 (stereo not drawn)	0.15	7.6
97	O=C(O)/C=C/C(=O)NNc1ncnc2ccccc12	0.9	.
98	CC(c1ccco1)N(C(=O)c1ccc(F)cc1)c1ccccn1 (stereo not drawn)	-0.55	-0.38
99	CN(C)S(=O)(=O)c1cccc(CSc2nnc(N)s2)c1	0.15	.
100	Cc1ccc(C(O)(C(=O)NN(C(=O)c2cccnc2N2CCCCC2)c2ccccc2)c2ccc(C)cc2)cc1	.	-0.08
101	NC(=O)c1ccc[n+]([C@@H]2O[C@H](COP(=O)([O-])OP(=O)(O)OC[C@H]3O[C@@H](n4cnc5c(N)ncnc54)[C@H](OP(=O)(O)O)[C@@H]3O)[C@@H](O)[C@H]2O)c1	0.6	0.34
102	O=C(COc1ccccc1)N1CCc2ccccc21	0.2	-0.59
103	Cc1nn(Cc2nc(-c3cccs3)no2)c(C)c1Br	1.2	0.27
104	Cn1c(=S)[nH]c2c(c1=O)C1(CCCCC1)Cc1ccccc1-2	.	0.78
105	O=C(NCCc1ccccn1)OCC(Cc1ccccc1)N(Cc1ccccc1)Cc1ccccc1 (stereo not drawn)	.	-0.52

Single records, from the list above.
NC(=O)c1ccc[n+]([C@@H]2O[C@H](COP(=O)([O-])OP(=O)(O)OC[C@H]3O[C@@H](n4cnc5c(N)ncnc54)[C@H](OP(=O)(O)O)[C@@H]3O)[C@@H](O)[C@H]2O)c1 is entered as AID504770: 0.6; CapD inh: 0.34
O=C(NCCc1ccccn1)OCC(Cc1ccccc1)N(Cc1ccccc1)Cc1ccccc1 (stereo not drawn) is entered as AID504770: .; CapD inh: -0.52

Back to the main list with the four entries that preceded the break.
#	structure	AID504770	CapD inh
102	O=C(COc1ccccc1)N1CCc2ccccc21	0.2	-0.59
103	Cc1nn(Cc2nc(-c3cccs3)no2)c(C)c1Br	1.2	0.27
104	Cn1c(=S)[nH]c2c(c1=O)C1(CCCCC1)Cc1ccccc1-2	.	0.78
105	O=C(NCCc1ccccn1)OCC(Cc1ccccc1)N(Cc1ccccc1)Cc1ccccc1 (stereo not drawn)	.	-0.52
106	NS(=O)(=O)c1ccc(N=Cc2c3ccccc3cc3ccccc23)cc1	-0.1	-0.66
107	O=C(CCn1cnc2ccccc2c1=O)Nc1ccccc1C(F)(F)F	0.25	-0.14
108	OC(CN1CCOCC1)c1ccc2cc[nH]c2c1 (stereo not drawn)	0	7.3
109	CN(C)/N=C/C=C1\CCC(P(=S)(N2CCOCC2)N2CCOCC2)=C1N1CCOCC1	-0.35	.
110	CSC1=C(C#N)C(=O)NC2(CCCCC2)S1	2	-0.39
111	Cc1nc(N2CCOCC2)c2c(C)c(C(=O)N3CCN(c4ccccn4)CC3)sc2n1	.	-0.15
112	O=C(CCOc1ccc(F)cc1)Nc1ccc(Cl)cc1	-0.4	-0.91

Compound activity: PubChem BioAssay, ICCB-Longwood Screening Facility, Harvard Medical School
